From PubChem
RE007 growth inh = less growth of the S. pombe RE007 Vpr strain; S. pombe RE007 Vpr strain, BacTiter-Glo ATP luminescence, 24 h; control for the full effect not named in the record; Potency, µM (titrated, usually from 92.2 µM), inactives show at the highest dose activity change, negative = less growth; actives 0.21% (n = 360,000); active = well fitted falling curve with a large enough effect; inconclusive = small, poorly fitted or top-dose-only effect; inactive = no such curve, though single readings can be large or run the other way;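 note: % is set by controls: 0 for no effect and ±100 for the full control effect; nearly all actives have a fitted effect of over 50% in size; the assay follows cell death caused by Vpr and the record does not say whether a fall means rescue or toxicity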
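Fission yeast RE007 carrying one integrated HIV-1 vpr copy, seeded at OD 0.01 in PMG+AL medium with 23 nL pinned compound. Grown 24 h at 30 degrees; viability read by BacTiter-Glo luminescence after 5 min.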
2A StopGo = FMDV 2A StopGo reporter, luciferase signal. human cells with a luciferase reporter of 2A StopGo recoding; control for the full effect not named in the record. Potency, µM (doses to about 57.9 µM), without a hit: top-dose signal change, negative = less light. actives 1.2% (n = 410,000). AID 1159524; active = well fitted falling curve with a large enough effect; inconclusive = small, poorly fitted or top-dose-only effect; inactive = no such curve, though single readings can be large or run the other way; tested in HEK293T cells; note: % is set by controls: 0 for no effect and ±100 for the full control effect; nearly all actives have a fitted effect of over 45% in size; luciferase light after 4 h
SARS PLP yeast = blocks SARS-CoV papain-like protease in a yeast assay; Potency, µM (series often up to 32.9 µM), for inactives: top-dose activity, positive = growth rescue; actives 0.19% (n = 330,000); S. cerevisiae expressing SARS-CoV PLpro, growth rescue; control for the full effect not named in the record; active means well fitted rising curve with a large enough effect; inconclusive means small, poorly fitted or top-dose-only effect; inactive means no such curve, though single readings can be large or run the other way; note: 0% is about no effect; nearly all actives have a fitted effect of over 55% in size; growth read by luminescence after 48 h
An asterisk follows results filed as active; ? = inconclusive; [ ] = another dose, or the depositor's remark. Potency is the fitted concentration of half-maximal effect.

Results follow in this order: RE007 growth inh | 2A StopGo | SARS PLP yeast
CN1CCN(C(=S)c2cn(Cc3cccc(F)c3)c3ccccc23)CC1
→ 13% | 21% | 5%
CCOC(=O)N1CCN(c2ccc(S(=O)(=O)N3CCC(C)CC3)cc2[N+](=O)[O-])CC1
→ 9% | ? | 1%
Cc1ccccc1-c1nnc(SCC(=O)c2c(N)n(C3CC3)c(=O)[nH]c2=O)o1
→ 3% | -17% | -2%
CSCCC(NC(=O)c1ccco1)C(=O)N1CCCC(C(F)(F)F)C1 (stereo not drawn)
→ 5% | -13% | 0%
O/N=C/c1ccn(-c2ccc(Br)cc2)c1
→ -21% | 59%[activator] | -3%
O=C(/C=C/c1ccco1)NCC(=O)N/N=C/c1ccc([N+](=O)[O-])cc1
→ -15% | -3% | -2%
CCOC(=O)[C@H]1[C@H]2COc3ccc(C)cc3[C@@H]2N2C(=O)CN(Cc3ccco3)C(=O)[C@@]12C
→ 4% | -9% | 1%
O=C(COC(=O)/C=C/c1ccccc1)NC1CC1
→ 28% | -2% | 5%
CC1CCC2(CC1)NC(=O)N(NC(=O)c1cccc(N(C)C)c1)C2=O (stereo not drawn)
→ 2% | -6% | -3%
CCOC(=O)[C@H]1[C@H]2COc3cc(OC)ccc3[C@@H]2N2C(=O)CN(C)C(=O)[C@@]12C
→ 9% | -5% | -1%
CC(C)c1onc(C(=O)Nc2cccnc2Cl)c1[N+](=O)[O-]
→ -4% | -5% | 1%
O=C(CNC(=O)c1ccco1)NNC(=O)c1cccc(Cl)c1
→ -6% | 0% | 1%
Cc1ccc(S(=O)(=O)N(C)/N=C/c2ccc(C(=O)O)cc2)cc1
→ 8% | -4% | 0%
CCc1ccccc1NC(=O)CNC(=O)c1cc(C2CC2)nc2c1cnn2C(C)C
→ 20% | -18% | -1%
COC(=O)c1c(C)[nH]c(C(=O)C(C)OC(=O)C2CC2C)c1C (stereo not drawn)
→ 3% | -17% | -1%
CC(C)COc1ccc(C(=O)NNC(=O)CCC(=O)c2cccs2)cc1
→ 9% | 8% | 2%
C=CC[C@H](CC(=O)N(CCO)Cc1ccccc1)C(=O)N[C@H](COC(=O)[C@@H](CC=C)Cc1ccc(F)cc1)Cc1c[nH]c2ccccc12
→ 3% | ? | 0%
C/C(=N\NC(=O)Cc1ccc(F)cc1)c1ccc(O)cc1
→ 1% | -9% | -2%
C[C@H](NC(=O)c1ccco1)C(=O)Nc1cc(S(=O)(=O)N2CCCC2)ccc1OCC(F)(F)F
→ 2% | -11% | 1%
CON(C)S(=O)(=O)c1cccc(C(=O)N(CC(=O)Nc2ccccc2C(F)(F)F)Cc2ccco2)c1
→ -4% | 42%[activator] | -2%
O=C(CSc1n[nH]c(=O)[nH]c1=O)Nc1cccc(S(=O)(=O)N2CCOCC2)c1
→ 23% | 8% | 0%
Cc1ccc(S(=O)(=O)NCCC(=O)N2CCN(c3ccccc3)CC2)cc1C
→ -4% | -14% | -4%
O=C1NC(=O)C(=Cc2cc(Cl)ccc2OCc2ccc(C(=O)O)cc2)C(=O)N1
→ -20% | 48% | 0%
CCc1nnc(NC(=O)c2ccc(-c3ccc(C(C)=O)cc3)o2)s1
→ 6% | -14% | -3%
Oc1ccc(C[C@@H]2CNCCN2CCc2cccc(F)c2)cc1
→ -15% | -19% | 1%
CCCCn1c(N)c(N(CCC(C)C)C(=O)COC(=O)c2sccc2C)c(=O)[nH]c1=O
→ 1% | -5% | -3%
Cc1cccc(C(=O)NCC(=O)N2CCCCCCC2)c1
→ -11% | 46%[activator] | -11%
c1ccc(-c2cc3ccccc3cn2)cc1
→ -16% | 28% | 7%
CC(Sc1nnc(C2CC2)n1C1CC1)C(=O)c1ccc(F)cc1 (stereo not drawn)
→ 13% | -10% | 0%
COc1ccc(OC)c2[nH]c(=O)c(CCNC(=S)NC(C)(C)C)cc12
→ 4% | -2% | 3%
Cc1c(Cl)cccc1NC(=O)CNC(=O)c1cn(-c2ccccc2)nc1-c1cccnc1
→ 2% | -25% | -4%
Cc1ccc(NC(=O)CN(C)C(=O)c2cccc(S(=O)(=O)N3CCCC3)c2)cc1
→ 8% | 16% | 1%
Cc1cc(NC(=O)CN2C(=O)NC(CC(C)C)C2=O)ccc1Br (stereo not drawn)
→ 9% | -9% | -2%
CC(C)(C)NC(=O)C[C@H]1C[C@H](C(=O)N2CCCCC2)[C@@]2(CCc3ccccc3)c3[nH]c4cc(-c5ccco5)ccc4c3CCN2C1=O
→ 8% | 1% | 14%
CC(=O)c1cccc(OCC(=O)N2CCN(CC(=O)Nc3cccc(F)c3)CC2)c1
→ -20% | 7% | -2%
CSc1ccc(C2=CC(=O)C[C@H](c3ccc(F)cc3)C2)cc1
→ 6% | -18% | 4%
C#CCOCCOCCOCCNc1nc(N2CCN(C(=O)CCCCCCCCCCNC(=O)Cn3cc(CCCCCN)nn3)CC2)nc(N2CCN(C(=O)CCCCCCCCCCNC(=O)[C@@H](CCSC)n3cc(CCO)nn3)CC2)n1
→ 10% | -10% | 0%
COC(=O)C1=C(c2ccc(OC)c(OC)c2)C[C@@H]2CC[C@H]1N2C(=O)NCc1cc(C)oc1C(F)(F)F
→ 13% | 0% | -6%
CC1(C)CC[C@]2(C(=O)O[C@@H]3O[C@H](CO)[C@@H](O)[C@H](O)[C@H]3O)CC[C@]3(C)C(=CCC4[C@@]5(C)CC[C@H](O[C@@H]6O[C@H](C(=O)O)[C@@H](O[C@H]7OC[C@@H](O)[C@@H](O)[C@@H]7O)[C@H](O)[C@H]6O)C(C)(C)C5CC[C@]43C)[C@@H]2C1 (stereo partly drawn)
→ -1% | -15% | 2%
CC(C)(C)[C@H]1COC(=O)[C@@H](Cc2ccc(F)cc2)CC/C=C/C[C@@H](CC(=O)N[C@@H](CO)Cc2ccccc2)C(=O)N1
→ 20% | ? | 1%
COC(=O)c1c(NC(=O)CN2C(=O)NC3(CCCCC3C)C2=O)sc2c1CCC2 (stereo not drawn)
→ 8% | -19% | -14%
CC1=C(C(=O)OCc2ccccc2)C(c2cccc3ccccc23)NC(=O)N1CCCC(=O)O (stereo not drawn)
→ 11% | -2% | -9%
Cc1noc(C)c1NC(=O)Nc1ccc2c(c1)C(=O)N([C@H](C)CO)C[C@H](C)[C@@H](CN(C)S(=O)(=O)c1cccs1)O2
→ 3% | -8% | -16%
Nc1cc(N)nc(SCC(=O)Nc2cccc(S(=O)(=O)N3CCCCC3)c2)n1
→ -13% | -8% | 4%
COc1ccc(C2=CN(Cc3ccccc3)C(c3ccccc3)CC2=O)cc1 (stereo not drawn)
→ 19% | 41%[activator] | 8%

(listing goes on)
SMILES	RE007 growth inh	2A StopGo	SARS PLP yeast
Cc1ccsc1C(=O)OCC(=O)NC1CCS(=O)(=O)C1 (stereo not drawn)	14%	15%	0%
COC(=O)c1ccccc1NC(=S)N1CCN(c2ccc(OC)cc2)CC1	-2%	7%	8%
COc1ccc(CCNC(=O)COC(=O)c2cncc(Br)c2)cc1OC	3%	-3%	1%
O=C(CSc1ccc(S(=O)(=O)N2CCOCC2)cn1)Nc1ccc(F)c(F)c1	-14%	?	-4%
CCOP(=O)(OCC)C(Nc1ccccc1)c1ccco1 (stereo not drawn)	-17%	-9%	0%
COCCN(Cc1ccccc1)C(=O)c1cccc(S(=O)(=O)N2CCCc3ccccc32)c1	-8%	6%	4%
CN(Cc1ccc(Cl)s1)C(=O)CNC(=O)CNC(=O)c1ccc(Cl)cc1Cl	?	-13%	0%
COc1ccc(OCCOc2ccc(/C=C3\C(=N)N4N=C(C)SC4=NC3=O)cc2)cc1	5%	-4%	0%
CCCc1cc(=O)[nH]c(SCC(=O)Nc2cccc(S(=O)(=O)N3CCCCC3)c2)n1	1%	23%	0%
CCn1c(C)nc2cc(C(=O)NNC(=O)CN(C)S(=O)(=O)c3ccc(NC(C)=O)cc3)ccc21	1%	12%	4%
COc1ccc(S(=O)(=O)N(C)C[C@H]2Oc3ccc(NC(=O)c4ccncc4)cc3C(=O)N([C@H](C)CO)C[C@@H]2C)cc1	11%	-22%	4%
C[C@@H]1CN([C@H](C)CO)C(=O)c2cc(NC(=O)c3ccncc3)ccc2O[C@@H]1CN(C)C(=O)Nc1ccccc1	5%	-14%	6%
COc1ccc(NC(=O)CN(C)C(=O)C2CCCO2)cc1 (stereo not drawn)	-5%	0%	5%
CC(C)(C)c1ccc(OCC(=O)Nc2cccc(S(=O)(=O)NC3=NCCCCC3)c2)cc1	10%	-15%	1%
COc1cc(Cl)c(C)cc1NC(=O)CN(C)C1CCS(=O)(=O)C1 (stereo not drawn)	-28%	-25%	0%
COC(=O)[C@]1(CC(C)C)N[C@H](c2ccc(-c3ccc(C(C)=O)cc3)cc2)[C@@H]2C(=O)N(C)C(=O)[C@@H]21	-7%	-13%	-4%
CCN1CCN(Cc2c(O)ccc3c2O/C(=C\c2ccc(C)cc2)C3=O)CC1	2%	20%	0%
CC(=O)NC12CC3CC(C1)CC(C(=O)N1CCN(C(=O)c4ccco4)CC1)(C3)C2	9%	-10%	-2%
COc1ccc(CC(=O)N(C)CC(=O)Nc2ccccc2Cl)cc1S(=O)(=O)N1CCOCC1	5%	-1%	6%
CCOC(=O)CSc1nc(C)cc(C)c1C(N)=O	-12%	-7%	-3%
O=S(=O)(Nc1ccccc1)c1ccc(S(=O)(=O)N2CCCC2)cc1	-14%	-11%	1%
O=C(O)C1=CC[C@@H](c2ccc(Cl)cc2)N(S(=O)(=O)c2ccc(Cl)cc2)[C@H]1c1cccc(Cl)c1	-7%	-18%	-21%
C[C@@H](NC(=O)c1nc[nH]c1C(=O)N1CCN(C(=O)OC(C)(C)C)CC1)c1ccccc1	-17%	-26%	-10%
CCN(CC)C(=O)[C@H]1C[C@H](CC(=O)NC/C=C(\C)CCC=C(C)C)C(=O)N2CCc3c([nH]c4cc(-c5ccco5)ccc34)[C@]12C	26%	-1%	-4%
COc1ccc(N2CCN(C(=O)c3cn(Cc4ccccc4)nc3-c3cccnc3)CC2)cc1	9%	82%[activator]	-5%
CCOC(=O)[C@H]1[C@H]2COc3cc(OC)ccc3[C@@H]2N2C(=O)N(c3cccc(F)c3)C(=O)[C@@]12C	4%	-14%	-6%
CC[C@@H]1C=C(C(=O)O)[C@H](c2ccc(Cl)c(Cl)c2)N1S(=O)(=O)c1ccc(C)cc1	-24%	-8%	-2%
CC(C(=O)OCC(=O)N(C)C1(C#N)CCCCC1)N1C(=O)c2ccccc2C1=O (stereo not drawn)	-1%	-24%	6%[6.58 µM]
COc1ccc(C2=CC(=O)C[C@H](c3ccc4c(c3)OCO4)C2)cc1	1%	-1%	0%
COc1ccc(C2=NCCn3c2c2ccc(C(F)(F)F)cc2[n+]3[O-])cc1	11%	-2%	2%
O=c1c2ccccc2nc2ccc(NCc3cccs3)nn12	10%	67%[activator]	11%
O=C(NN1C(=O)c2ccccc2NC1c1ccc([N+](=O)[O-])o1)c1ccc(Br)cc1 (stereo not drawn)	3%	-18%	3%
COC(=O)[C@]1(Cc2ccccc2)N[C@H](CN(C)C(=O)Nc2ccc(Cl)cc2)[C@@H]2C(=O)N(Cc3ccccc3)C(=O)[C@@H]21	-28%	-13%	0%
COc1ccc(-c2ccc3oc(-c4ccsc4)cc(=O)c3c2)cc1F	7%	41%[activator]	13%
Cc1nc2ccc(C(=O)N/N=C/c3cc([N+](=O)[O-])ccc3O)cc2[nH]1	11%	-14%	2%
CCCn1c(N)c(C(=O)CSc2nc(N)cc(=O)[nH]2)c(=O)n(C)c1=O	-2%	-29%	-3%
COc1cc2ncc(S(=O)(=O)c3ccccc3)c(N3CCC4(CC3)OCCO4)c2cc1OC	12%	-20%	-4%
CC[C@H]1OC(=O)[C@H](C)[C@@H](O[C@H]2C[C@@](C)(OC)[C@@H](O)[C@H](C)O2)[C@H](C)[C@@H](O[C@@H]2O[C@H](C)C[C@H](N(C)C)[C@H]2O)[C@](C)(OC)C[C@@H](C)C(=O)[C@H](C)[C@@H](O)[C@]1(C)O	-17%[18.4 µM]	-18%	2%
CC(C)NC(=O)NC(=O)CSc1nnc(-c2ccccc2F)n1N	-4%	-6%	1%
COc1ccc(COc2cccc(C=O)c2)cc1	?	-23%	5%

Some of the entries above in another layout.
COc1ccc(C2=NCCn3c2c2ccc(C(F)(F)F)cc2[n+]3[O-])cc1
  RE007 growth inh: 11%
  2A StopGo: -2%
  SARS PLP yeast: 2%

O=c1c2ccccc2nc2ccc(NCc3cccs3)nn12
  RE007 growth inh: 10%
  2A StopGo: 67%[activator]
  SARS PLP yeast: 11%

O=C(NN1C(=O)c2ccccc2NC1c1ccc([N+](=O)[O-])o1)c1ccc(Br)cc1 (stereo not drawn)
  RE007 growth inh: 3%
  2A StopGo: -18%
  SARS PLP yeast: 3%

COC(=O)[C@]1(Cc2ccccc2)N[C@H](CN(C)C(=O)Nc2ccc(Cl)cc2)[C@@H]2C(=O)N(Cc3ccccc3)C(=O)[C@@H]21
  RE007 growth inh: -28%
  2A StopGo: -13%
  SARS PLP yeast: 0%

Only part of the results is shown. The share of hits here may be higher or lower than overall.
